SARS PLpro yeast – SARS-CoV PLP inhibition in yeast. S. cerevisiae expressing SARS-CoV PLpro, growth rescue; control for the full effect not named in the record. Potency, µM (top dose mostly 32.9 µM), for inactives: at the highest dose activity, positive = growth rescue. 0.19% of 330,000 active; active means well fitted rising curve with a large enough effect; inconclusive means small, poorly fitted or top-dose-only effect; inactive means no such curve, though single readings can be large or run the other way; further: 0% is about no effect; nearly all actives have a fitted effect of over 55% in size; growth read by luminescence after 48 h
StopGo reporter – FMDV 2A StopGo reporter, luciferase signal. human cells with a luciferase reporter of 2A StopGo recoding; control for the full effect not named in the record. Potency, µM (titrated, usually from 57.9 µM), for inactives: at the top dose signal change, negative = less light. 1.2% of 410,000 active. AID 1159524; active = well fitted falling curve with a large enough effect; inconclusive = small, poorly fitted or top-dose-only effect; inactive = no such curve, though single readings can be large or run the other way; tested in HEK293T cells; further: on the % scale 0 is the no-effect control and ±100 the full control effect; nearly all actives have a fitted effect of over 45% in size; luciferase light after 4 h
Cruzain inh noDet – cruzain (T. cruzi) inhibition without detergent; purified cruzain, Z-FR-AMC fluorescence, no detergent; Potency, µM, inactives show max response, negative = inhibition, hits mostly inhibitors; 2.3% of 200,000 active; AID 1476;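 further: plate controls were enzyme without inhibitor for no effect and buffer without enzyme for full effect; nearly all actives have a fitted effect of over 40% in size; top concentration of the series not given in the record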
Target sequence (P25779 123-467 limits assumed): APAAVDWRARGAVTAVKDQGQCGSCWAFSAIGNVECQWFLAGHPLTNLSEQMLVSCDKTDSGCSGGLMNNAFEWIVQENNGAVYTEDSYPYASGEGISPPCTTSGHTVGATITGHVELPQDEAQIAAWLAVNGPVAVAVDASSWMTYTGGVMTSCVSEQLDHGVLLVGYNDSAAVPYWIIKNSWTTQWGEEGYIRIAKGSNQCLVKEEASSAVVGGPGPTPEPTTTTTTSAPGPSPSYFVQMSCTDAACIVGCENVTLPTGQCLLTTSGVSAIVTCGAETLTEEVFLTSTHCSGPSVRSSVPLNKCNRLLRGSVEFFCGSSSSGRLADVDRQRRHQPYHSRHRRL
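Purified cruzain at 1.5 nM, pre-incubated 15 min with compound at room temperature in 100 mM sodium acetate pH 5.5, 5 mM DTT, 0.00005% Triton X-100. Reaction started with 2 uM Z-FR-AMC; AMC fluorescence increase over 60 s gives rate.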
NS1 inh – influenza NS1 inhibition; Potency, µM (titrated, usually from 46.1 µM), without a hit: at the top dose activity, positive = more growth; 0.4% of 270,000 active; S. cerevisiae slowed by influenza A NS1, growth recovery by OD600; active means well fitted rising curve with a large enough effect; inconclusive means small, poorly fitted or top-dose-only effect; inactive means no such curve, though single readings can be large or run the other way; further: nearly all actives have a fitted effect of over 50% in size
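S. cerevisiae expressing influenza A NS1, grown in glucose, washed, then diluted 1:100 into pH 6.0 -URA galactose medium with 23 nl compound. Growth recovery read as OD600; NS1-free strain serves as control.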
LASV entry inh – blocks Lassa virus binding to or entry into cells; Lassa virus pseudotype entry inhibition, cell reporter; control for the full effect not named in the record; Potency, µM (top dose mostly 37.9 µM), inactives show top-dose activity change, negative = inhibition, usual class: inhibitors; 1.2% of 300,000 active; AID 540256; active means well fitted inhibition curve with a large enough effect; inconclusive means small, poorly fitted or top-dose-only effect, or effect the other way; inactive means flat fitted curve, though single readings scatter; tested in HEK293 cells; further: on the % scale 0 is the no-effect control and ±100 the full control effect; nearly all actives have a fitted effect of over 50% in size; luciferase read-out
RE007 growth inh – less growth of the S. pombe RE007 Vpr strain; S. pombe RE007 Vpr strain, BacTiter-Glo ATP luminescence, 24 h; control for the full effect not named in the record; Potency, µM (titrated, usually from 92.2 µM), for inactives: at the top dose activity change, negative = less growth; 0.21% of 360,000 active; AID 651644; active = well fitted falling curve with a large enough effect; inconclusive = small, poorly fitted or top-dose-only effect; inactive = no such curve, though single readings can be large or run the other way;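 further: on the % scale 0 is the no-effect control and ±100 the full control effect; nearly all actives have a fitted effect of over 50% in size; the assay follows cell death caused by Vpr and the record does not say whether a fall means rescue or toxicity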
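Fission yeast strain RE007, carrying one chromosomally integrated HIV-1 vpr copy, was seeded at OD 0.01 in PMG+AL medium with 23 nL pinned compound. After 24 h at 30 °C and 99% humidity, viability was read by BacTiter-Glo luminescence.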
Cruzain Triton – blocks cruzain activity in presence of Triton detergent; P25779; purified cruzain, Z-FR-AMC fluorescence, 0.01% Triton; Potency, µM, inactives show max response, negative = inhibition, most hits filed as inhibitors; 0.43% of 200,000 active; AID 1478;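 further: plate controls were neutral wells for no effect and buffer without enzyme for full effect; nearly all actives have a fitted effect of over 40% in size; top concentration of the series not given in the record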
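Compounds were screened in titration against cruzain (1.5 nM) with 0.01% Triton X-100 to counter colloidal aggregation. Activity was the AMC fluorescence increase over 60 s after adding 2 uM Z-FR-AMC at pH 5.5.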
MARV entry inh – inhibitors of Marburg virus binding or cell entry | Marburg virus pseudotyped entry inhibition, cell reporter; control for the full effect not named in the record; about a third of the inactives were read at about 46 µM | Potency, µM (doses to about 37.8 µM), for the others: at the top dose activity change, negative = inhibition, most hits filed as inhibitors | 1.8% of 300,000 active | AID 540276; active = well fitted inhibition curve with a large enough effect; inconclusive = small, poorly fitted or top-dose-only effect, or effect the other way; inactive = flat fitted curve, though single readings scatter; tested in HEK293 cells; about a fifth of its hits are not listed in these tables; further: on the % scale 0 is the no-effect control and ±100 the full control effect; luciferase read-out
Active calls of the source: *; ? = inconclusive; . = not tested or not shown; & = joins results of further samples; [ ] = remark or other dose. Unless noted, the call rests on the fitted dose curve; in most records, active means well fitted curve in the direction sought with a large enough effect; inconclusive means small, poorly fitted or top-dose-only effect, or another doubt; inactive means no such curve, though single readings can be large; an effect the other way counts as inactive or inconclusive. Potency means the concentration at half of the fitted maximal effect.

SMILES | SARS PLpro yeast | StopGo reporter | Cruzain inh noDet | NS1 inh | LASV entry inh | RE007 growth inh | Cruzain Triton | MARV entry inh
COc1ccccc1OCCNC(=O)c1ccc(S(=O)(=O)N(C)C)cc1 | 3% | 8% | 10% | 0% | 5% | -8% | -1.3% | 5%
COc1ccccc1CC(=O)NCc1ccc2c(c1)OCO2 | 2% | -3% | 12% | 7% | -4% | 6% | 0.1% | ?
O=[N+]([O-])c1ccc(Sc2cccc3cccnc23)c2cccnc12 | 0% | ? | . | 2% | ? | -17% | . | ?
O=C(C1CCCN(S(=O)(=O)c2cccc3nonc23)C1)N1CCN(c2ccccc2F)CC1 (centres undefined) | . | -29% | 8% | . | 8%[46.1 µM] | . | -1.5% | 4%[46.1 µM]
O=C(COC(=O)Cc1ccsc1)NCc1ccc(Cl)cc1 | -20% | 0% | 3% | -7% | . | 18% | -0.2% | .
COC(C)(C)c1cc(C(C)(C)C)nc(N)n1 | 4% | 22% | 0% | -3% | 20% | 7% | 0.1% | 2%
O=C(CN1C(=O)C2CCc3[nH]c4ccccc4c3C2C1=O)N1CCCC1 (centres undefined) | -2% | -19% | -1% | -5% | 0% | 0% | 5.7% | 0%&0%
O=C(Nn1cnnc1)c1cc(Cl)ccc1Cl | 7% | -3% | . | 3% | . | -2% | . | .
COc1ccc(-c2nc3c(Br)c(N)c(Br)cc3o2)cc1 | 4% | 52%[activator] | -2% | 4% | -17% | -9% | 1.6% | -23%&-23%
COc1ccc(C2CC(c3cccs3)=NN2C(=O)CSc2nc3ccccc3o2)cc1 (centres undefined) | -8% | -11% | -66% | 52% | -12% | 8% | -11% | -36%
CCC1CCCCN1S(=O)(=O)c1ccc(S(=O)(=O)N(Cc2cccs2)C2CC2)cc1 (centres undefined) | -1% | -29% | -13% | 17% | ? | -9% | 1.4% | ?
Cc1cc(=O)n2c3c(sc2n1)C(=O)N(Cc1ccccc1)C3=O | -13% | . | 8% | -36% | . | . | 0.2% | .

The list goes on; the last four above are carried over.
SMILES | SARS PLpro yeast | StopGo reporter | Cruzain inh noDet | NS1 inh | LASV entry inh | RE007 growth inh | Cruzain Triton | MARV entry inh
COc1ccc(-c2nc3c(Br)c(N)c(Br)cc3o2)cc1 | 4% | 52%[activator] | -2% | 4% | -17% | -9% | 1.6% | -23%&-23%
COc1ccc(C2CC(c3cccs3)=NN2C(=O)CSc2nc3ccccc3o2)cc1 (centres undefined) | -8% | -11% | -66% | 52% | -12% | 8% | -11% | -36%
CCC1CCCCN1S(=O)(=O)c1ccc(S(=O)(=O)N(Cc2cccs2)C2CC2)cc1 (centres undefined) | -1% | -29% | -13% | 17% | ? | -9% | 1.4% | ?
Cc1cc(=O)n2c3c(sc2n1)C(=O)N(Cc1ccccc1)C3=O | -13% | . | 8% | -36% | . | . | 0.2% | .
Cc1ccccc1OCc1n(CC(=O)OC2CC(C)CCC2C(C)C)c2ccccc2[n+]1C (centres undefined) | -12%&-11% | ? | . | 2% | ? | 15%&14% | . | 3.5µM*
CCC(=NNC(=O)c1ccc2c(c1)nc(C)n2CC)c1cc(F)ccc1O | 10µM* | -18% | . | . | ? | -11% | . | ?
CCC(=O)Nc1sc2c(c1C(N)=O)CCN(Cc1ccccc1)C2 | 5% | ? | . | -3% | . | 15% | . | .
Cc1ccc(NC(=O)Nc2c(C)n(C)n(-c3ccccc3)c2=O)cc1C | -2% | 20% | . | . | 7% | 8% | . | -19%[14.2 µM]
O=c1c(N2CCN(c3cccc(C(F)(F)F)c3)CC2)csc2ccc(Cl)cc12 | . | 0% | 6% | . | ? | . | -7.5% | .
O=C(O)C(Cc1c[nH]c2ccccc12)N1Cc2ccccc2C1=O (centres undefined) | 0% | 6% | . | 4% | ? | -3% | . | ?
CCOc1ccc2cc(S(=O)(=O)N3CCN(C)CC3)ccc2c1 | -2% | 2% | -17% | -2% | -27% | 27% | -1.3% | 12%
Cc1nn(Cc2ccc(C(=O)N3N=C(C(F)F)CC3(O)C(F)F)o2)c(C)c1[N+](=O)[O-] (centres undefined) | 11% | ? | -3% | 2% | -6% | 7% | -3.0% | ?
COc1ccc(CNC(=O)c2c(O)c3ccccc3n(C)c2=O)cc1OC | 4% | 0% | ? | -8% | 2% | -4% | -1.8% | -2%
Cc1ccc(CCNC(=O)C2CCN(Cc3nc(-c4ccccc4C)oc3C)CC2)cc1 | . | ? | -11% | . | 6%[46.1 µM] | . | 2.7% | -2%[46.1 µM]
O=C(CCCN1CCc2[nH]c3ccc(F)cc3c2C1)c1ccc(F)cc1 | 1% | -28% | . | -4% | 14% | 0% | . | ?
Clc1ccc2nc(CN3CCCCC3)cn2c1 | -3% | -7% | -8% | -9% | -3% | 9% | 2.3% | -1%
C=CCn1c(Cc2ccccc2)nc2c(cnn2-c2ccccc2)c1=O | -2% | 28µM* | . | 5% | ? | 16% | . | ?
COc1ccc(CCNC(=O)CN(C)S(=O)(=O)c2ccc3c(c2)CCC(=O)N3)cc1OC | 2% | -25% | 4% | 27% | . | -8% | 5.4% | 0%
CN(Cc1nc(-c2cccnc2)no1)S(=O)(=O)c1ccc(Br)cc1 | -20% | 0% | -2% | -7% | -9% | 23% | 0.4% | -2%
CC(=O)c1cccc(NS(=O)(=O)c2cccc(S(=O)(=O)c3ccc(Br)cc3)c2)c1 | . | ? | -28% | . | -25%[46.1 µM] | . | -12% | .
Cc1cc(S(=O)(=O)NCc2cccs2)ccc1-n1cnnn1 | -21% | 100%[activator] | 0% | -3% | 6% | -2% | -2.2% | ?
COc1cc(NC(=S)N2c3ccccc3CC2C)cc(OC)c1 (centres undefined) | -3% | -23% | . | 13% | -1% | -9% | . | ?
CCOC(=O)C1=C[C@@]2(CC)CCCN3CCc4c(n1c1ccccc41)[C@H]32 | . | -2% | ? | . | . | . | -4.7%&-1.1% | ?
CCCCSCCCNC(=O)C1CCC(CNS(=O)(=O)c2ccc(NC(C)=O)cc2)CC1 (centres undefined) | 1% | -10% | . | -4% | . | -1% | . | .
COc1ccccc1NC(=O)C1=C(C)Nc2nc(SCc3ccccc3F)nn2C1c1cccs1 (centres undefined) | . | -10% | -3% | . | 1%[46.1 µM] | . | 1.8% | ?
O=C(NCCSCc1ccc(Cl)cc1)C1CCN(S(=O)(=O)Cc2ccccc2)CC1 | . | -8% | -1% | . | 17%[46.1 µM] | . | -3.8% | -6%[46.1 µM]
Cc1ccc(CN2CCN(c3ccccn3)CC2)s1 | 9% | 6% | -2% | -11% | -19% | 4% | 0.2% | -1%
COC(=O)c1ccc2c(=O)[nH]c(CSc3nc(-c4ccc(F)cc4)cs3)nc2c1 | 12% | -4% | -12% | -5% | ? | -7% | -2.0% | 7%

One compound at a time (already shown):
Entry for CCOC(=O)C1=C[C@@]2(CC)CCCN3CCc4c(n1c1ccccc41)[C@H]32 → SARS PLpro yeast: .; StopGo reporter: -2%; Cruzain inh noDet: ?; NS1 inh: .; LASV entry inh: .; RE007 growth inh: .; Cruzain Triton: -4.7%&-1.1%; MARV entry inh: ?
Entry for CCCCSCCCNC(=O)C1CCC(CNS(=O)(=O)c2ccc(NC(C)=O)cc2)CC1 (centres undefined) → SARS PLpro yeast: 1%; StopGo reporter: -10%; Cruzain inh noDet: .; NS1 inh: -4%; LASV entry inh: .; RE007 growth inh: -1%; Cruzain Triton: .; MARV entry inh: .

Following part
SMILES | SARS PLpro yeast | StopGo reporter | Cruzain inh noDet | NS1 inh | LASV entry inh | RE007 growth inh | Cruzain Triton | MARV entry inh
Cc1occc1C(=O)N=Nc1c(O)n(C)c2ccccc12 | -21% | 23% | -8% | 3% | ? | 10% | -5.2% | ?
COc1cccc(/C=C/C(=O)NCCc2ccc3c(c2)OCCO3)c1 | -30% | 0% | -6% | -15% | -6% | 0% | -8.0% | 3%
CCCc1nn2c(=O)cc(CSCC(=O)Nc3nnc(C(C)C)s3)nc2s1 | 1% | -4% | . | 10% | . | -13% | . | .
CC(=O)Oc1ccc(N(C(C)=O)S(=O)(=O)c2cccs2)cc1 | 2% | -8% | -2% | 3% | -11%[14.3 µM] | -5% | -2.1% | 6%
COc1cccc(C2CC(=O)Nc3cc(OC)c(OC)cc32)c1 (centres undefined) | 2% | -8% | . | 11% | -15%[46.1 µM] | 29% | . | 18%[46.1 µM]
Cc1nn(-c2ccccc2)c(C)c1NC(=O)COC(=O)C1CC(=O)N(CCc2ccccc2)C1 (centres undefined) | 1% | -11% | . | . | 23% | 8% | . | 19%
COc1ccc(N2CCN(C(=O)CCCOc3cc(=O)n(C)c4ccccc34)CC2)cc1 | 7% | ? | ? | -10% | 9% | -2% | -2.1% | ?
CCn1c(C)c(C2N3CC4(C)CN2CC(CC)(C3)C4=O)c2ccccc21 (centres undefined) | . | -13% | 7% | . | . | . | -1.5% | -6%[46.1 µM]
CCNC(=S)N/N=C/c1cn(Cc2ccc(F)cc2)c2ccccc12 | ? | ? | 0% | 27% | ? | -6% | -7.5% | ?
O=C(CCCCCn1c(=S)[nH]c2ccccc2c1=O)NCc1ccc2c(c1)OCO2 | 5% | 42%[activator] | -22% | 12% | 9% | -6% | 1.0% | ?
CC1CCN(CCCNC(=O)COc2cc(=O)n(C)c3ccccc23)CC1 | 5% | 12% | 5% | 2% | 1% | -24% | -0.3% | 6%
O=C(COC(=O)c1cc(-c2ccccc2)nc2ccccc12)c1ccc(Br)cc1 | . | 15% | -11% | . | -26%[46.1 µM] | . | -0.7% | -16%[46.1 µM]
CN(C)C1=NCCN1CCC1CCCC1 | -9% | 7% | . | -10% | . | 1% | . | .
CC1(C)CC(=O)C2=C(C1)N(Cc1cccnc1)C(=O)C2(NC(=O)c1ccc(F)cc1)C(F)(F)F (centres undefined) | 3% | 31% | -4% | ? | 2% | -4% | 0.3% | 4%
COc1ccc(/C=C/C(=O)c2cc(F)ccc2OC(=O)c2ccccc2)cc1OC | . | 28µM* | . | . | ? | -19% | . | ?

Source: PubChem (National Center for Advancing Translational Sciences (NCATS))

Compounds were not picked by outcome. Share with any hit: about 4.7%.
